# Screens from PubChem.
# FEN1 inhibitor: human FEN1 inhibition; P39748; Recombinant FEN1 flap cleavage, fluorescence, 15 min; Potency, µM (doses to about 114 µM), without a hit: at the top dose activity change, negative = inhibition, usual class: inhibitors; hit rate 0.35% among 390,000; AID 588795; active means well fitted inhibition curve with a large enough effect; further: nearly all actives have a fitted effect of over 65% in size
# Target sequence (P39748 whole entry, looked up): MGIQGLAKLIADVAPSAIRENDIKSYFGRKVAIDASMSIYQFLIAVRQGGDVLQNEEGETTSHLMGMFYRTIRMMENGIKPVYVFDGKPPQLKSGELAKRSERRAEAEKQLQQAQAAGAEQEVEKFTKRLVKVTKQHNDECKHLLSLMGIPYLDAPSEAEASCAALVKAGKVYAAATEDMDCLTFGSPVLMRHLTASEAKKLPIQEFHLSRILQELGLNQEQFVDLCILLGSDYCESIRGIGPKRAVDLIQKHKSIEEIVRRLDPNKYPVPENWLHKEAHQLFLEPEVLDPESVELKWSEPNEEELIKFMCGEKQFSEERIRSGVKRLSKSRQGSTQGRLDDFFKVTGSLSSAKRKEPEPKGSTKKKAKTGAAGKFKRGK
#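 Concentration–response screening of FEN1 (10 nM): 15 min compound preincubation at room temperature, reaction started with 50 nM substrate and read at 0 and 15 min. Corrected, normalized data were fitted by a four-parameter Hill equation.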
# Active calls of the source: *; [ ] = remark or other dose. On the % scale 0 is the no-effect control and ±100 the full control effect; potency means the concentration at half of the fitted maximal effect.
cpd	Compound	FEN1 inhibitor
1	CCCn1c(SCC(=O)Nc2ccc(OCC)cc2)nnc1C(C)C	-13%
2	CC(=O)Cn1c(=O)c2c(nc3n2CCCN3Cc2ccccc2)n(C)c1=O	-4%
3	CN(C)CCC(c1ccc(Cl)cc1)c1ccccn1 (configuration not stated)	-1%[57.1 µM]
4	COc1ccc(C)c2sc(=NC(=O)C(C)C)n(C)c12	0%
5	Cc1ccc(-c2nc(CS(=O)CC(=O)NCCN3CCOCC3)c(C)o2)cc1 (configuration not stated)	-1%
6	Cc1cccc(N(CC(=O)N2CCCC2)S(=O)(=O)c2ccccc2)c1	1%
7	O=C(NCc1ccccc1)c1ccc(CS(=O)(=O)c2ccc(Br)cc2)o1	-11%
8	COC(=O)C1=C(C)N=C2SC(C)C(=O)N2C1c1cccc(F)c1 (configuration not stated)	1%
9	COc1ccc(-c2nc(CS(=O)(=O)CC(=O)NCCCN3CCN(C)CC3)c(C)o2)cc1	4%
10	Cc1cc(N2CCOCC2)nc(N)n1	1%
11	CC1(c2ccccc2)NC(=O)N(CCOc2ccccc2)C1=O (configuration not stated)	-4%
12	COC(=O)c1ccc(NC(=O)CSc2ccc(-c3ccccn3)nn2)cc1	2%
13	Cc1cc(=O)nc2c3ccccc3n(C(C)C(=O)Nc3c(F)c(F)c(F)c(F)c3F)n12 (configuration not stated)	0%
14	O=C(O)c1ccc2c(c1)S(=O)(=O)N=C1CCCCCN12	13%
15	O=C(O)c1ccc(S(=O)(=O)N2CCC(NC(=O)C3CCCCC3)CC2)cc1	5%
16	COCCNC(=O)C(c1ccc(C)cc1)N(C(=O)CCC(=O)Nc1ccccn1)c1ccc(C)cc1 (configuration not stated)	1%

# Given as labelled records: entries from further up
15) O=C(O)c1ccc(S(=O)(=O)N2CCC(NC(=O)C3CCCCC3)CC2)cc1
  FEN1 inhibitor = 5%

2) CC(=O)Cn1c(=O)c2c(nc3n2CCCN3Cc2ccccc2)n(C)c1=O
  FEN1 inhibitor = -4%

1) CCCn1c(SCC(=O)Nc2ccc(OCC)cc2)nnc1C(C)C
  FEN1 inhibitor = -13%

13) Cc1cc(=O)nc2c3ccccc3n(C(C)C(=O)Nc3c(F)c(F)c(F)c(F)c3F)n12 (configuration not stated)
  FEN1 inhibitor = 0%

# (cont.)
cpd	Compound	FEN1 inhibitor
17	CSc1ccccc1C(=O)C1CCCN(C(=O)CCN2CCCO2)C1 (configuration not stated)	-3%
18	Cc1ccc(-c2nn(C)c(=O)c3ccccc23)cc1S(=O)(=O)NCCO	4%
19	O=C1COc2ccc(C(=O)COC(=O)C3CC(O)CN3S(=O)(=O)c3ccc(Cl)cc3)cc2N1 (configuration not stated)	19%
20	COc1ccc(-n2cnnc2SCC(=O)Nc2ccc(N3CCOCC3)cc2)cc1	-12%

# Fetched by compound from the entries so far:
cpd	Compound	FEN1 inhibitor
17	CSc1ccccc1C(=O)C1CCCN(C(=O)CCN2CCCO2)C1 (configuration not stated)	-3%
6	Cc1cccc(N(CC(=O)N2CCCC2)S(=O)(=O)c2ccccc2)c1	1%

# Some of the compounds tested, and most or all hits are left out here.
